H5N1 CPE: MDCK cell protection from H5N1 avian flu. cytopathic effect, luminescence, 72 h; stronger effect = higher value; no value below 0 was filed and about half of the inactive calls have no number; reference of the scale not given here. inhibition, % at 50 µM. actives 0.07% (n = 96,000); in the data active = inhibition above about 25%
* hit, by the source's call; i = inactive. This is a subset, so the mix of outcomes need not match the whole.

The opening five entries, to show the layout:
compound	H5N1 CPE
Oc1ccccc1C1=Nc2ccccc2N=C(c2cccs2)C1	i
CCOC(=O)C1=C(N)OC2=C(C(=O)CCC2)C1c1ccccc1OCC (stereo unspecified)	i
CC(=O)Nc1ccc(S(=O)(=O)Nc2ccc(NC(=O)c3ccco3)cc2)cc1	0.2
CC(CC(=O)NCc1ccccc1)C1CCCO1 (stereo unspecified)	0.9
O=C1C(C=Nc2ccccc2)=C(O)c2ccccc21	i

This part in full, previewed entries included:
compound	H5N1 CPE
Oc1ccccc1C1=Nc2ccccc2N=C(c2cccs2)C1	i
CCOC(=O)C1=C(N)OC2=C(C(=O)CCC2)C1c1ccccc1OCC (stereo unspecified)	i
CC(=O)Nc1ccc(S(=O)(=O)Nc2ccc(NC(=O)c3ccco3)cc2)cc1	0.2
CC(CC(=O)NCc1ccccc1)C1CCCO1 (stereo unspecified)	0.9
O=C1C(C=Nc2ccccc2)=C(O)c2ccccc21	i
CCC1(c2ccccc2)NC(=O)N(CC(=O)Nc2ccc3c(c2)OCO3)C1=O (stereo unspecified)	i
O=C(c1ccccc1)c1nc2ccccc2n(CCCn2c(=O)c(C(=O)c3ccccc3)nc3ccccc32)c1=O	2.8
COc1ccc(-c2c(C)nn3c(N4CCN(Cc5ccccc5)CC4)cc(C)nc23)cc1OC	i
COc1ccc(S(=O)(=O)N[C@H](C(=O)N2CC[C@@]3(O)CCCC[C@H]3C2)c2ccccc2)cc1	i
COCc1[nH]nc2c1C(c1cccc(OC)c1)C(C#N)=C(N)O2 (stereo unspecified)	i
Cc1cc(C)c(S(=O)(=O)c2ccccc2)c(OC(=O)c2cc(F)c(F)cc2Cl)n1	0.3
Fc1ccc(NCc2nnc(SCc3nnc(-c4ccccc4)o3)n2Cc2ccccc2)cc1	i
COc1ccc(-n2cnnc2SCC(=O)N2CCN(S(=O)(=O)c3ccccc3)CC2)cc1	0.8
Cc1cc(OCC(F)(F)C(F)(F)C(F)(F)C(F)F)nc(N)n1	0.2
COc1ccc(C2C(C(=O)O)CC(=O)N2c2ccc(OC)cc2)cc1 (stereo unspecified)	i
O=C(c1ccc(S(=O)(=O)N2CCCCC2)cc1)N1CCN(Cc2ccc3c(c2)OCO3)CC1	0.6
CCC(=O)N(Cc1ccc2c(c1)OCO2)Cc1cc2cc(OC)ccc2[nH]c1=O	i
CNC(=O)c1nnn(Cc2ccccc2)c1NC(C)=O	0.4
Cc1ccc(OCCSc2ncnc3sc(C)c(C)c23)cc1C	6.1
CCOC(=O)C1=C(N)c2ccccc2CC1C(C)C (stereo unspecified)	i
O=C(CN1CCN(C(c2ccccc2)c2ccccc2)CC1)N1CCOCC1	i
O=C(CSc1ncnc2ccccc12)NCCCO	1.4
Cc1noc(C)c1S(=O)(=O)NC1CCN(Cc2ccccc2)CC1	0.6
COc1ccc(-n2c(=O)[nH]c3ccccc3c2=O)c(OC)c1	i
COc1ccc2c(c1)OCC1=C2CCC2(C)C(=O)CC=C12 (stereo unspecified)	1.1
CCOC(=O)c1[nH]c2ccc(OC)cc2c1NC(=O)CN1CCSCC1	0.6
CN1CC=C2C(C#N)=C(N)C(C#N)(C#N)C(Cc3ccccc3)C2C1 (stereo unspecified)	1.9
CCOc1ccccc1NC(=O)NS(=O)(=O)c1ccc(C)cc1	i
O=S(=O)(Nc1ccc2c3c(cccc13)CC2)c1ccc(F)cc1	1.5
OC1CCCN(Cc2ccc3c(c2)Cc2ccccc2-3)C1 (stereo unspecified)	i

Copied from the entries so far (3 entries):
compound	H5N1 CPE
CCOC(=O)c1[nH]c2ccc(OC)cc2c1NC(=O)CN1CCSCC1	0.6
CN1CC=C2C(C#N)=C(N)C(C#N)(C#N)C(Cc3ccccc3)C2C1 (stereo unspecified)	1.9
CCOc1ccccc1NC(=O)NS(=O)(=O)c1ccc(C)cc1	i

(list continues)
compound	H5N1 CPE
O=C1C(=O)c2c(C(=O)c3ccccc3)coc2-c2ccccc21	3.3
CCOc1ccc(S(=O)(=O)N2CCCCC2)c2ccccc12	1.3
COc1cccc(-c2csc(N3CCN(C(=S)Nc4ccccc4Cl)CC3)n2)c1	0.0
O=C(CCc1ccccc1)n1nc(-c2ccco2)nc1SCc1ccccc1	i
OC(CN1CCOCC1)CN(c1ccccc1)c1ccccc1 (stereo unspecified)	i
CCOC(=O)c1ccc(NC(=O)CSc2nccn2C)cc1	i
COC(=O)CS(=O)(=O)c1nnc([C@H](Cc2ccccc2)NC(=O)OC(C)(C)C)o1	i
C/C(=C\C#N)n1nc(C)cc1N	0.4
CCOc1ccc(C2C(C#N)=C(N)SC(N)=C2C#N)cc1OCC	1.3
COc1cc(/C=N\NC(=O)Cn2nnc3ccccc32)cc(OC)c1OC	i
Cc1nn(-c2ccccc2)c(C)c1NC(=O)c1ccc(S(=O)(=O)N2CCCC2)cc1	i
O=C(CN1C(=O)NC2(CCOc3ccccc32)C1=O)Nc1ccc2c(c1)OCCO2 (stereo unspecified)	1.8
COCCNC(=O)CN1CCC(NC(=O)Nc2ccc(C(F)(F)F)cc2)CC1	i
CC(C)NC(=O)C(Sc1ccccc1)c1ccccc1 (stereo unspecified)	0.7
CCc1ccc(OCc2nnc(SCC(=O)NCc3ccco3)o2)cc1	i
Cc1noc(C)c1S(=O)(=O)Nc1ccc(C(=O)N2CCCCC2)cc1	0.8
CCOc1cccc(C(=O)Nc2nc(-c3ccc(S(=O)(=O)N4CCOCC4)cc3)cs2)c1	i
O=C(NCC(=O)N(Cc1ccco1)C(C(=O)NC1CCCC1)c1cccnc1)c1cccs1 (stereo unspecified)	1.9
Cc1c(-c2ccccc2)[n+](=O)c(-c2ccco2)c(C)n1[O-]	i
O=C1c2ccccc2C(=O)N1C/C=C/c1ccccc1	1.0
COc1ccc(CNC(=O)C(C)NC(=O)c2cc3ccccc3o2)cc1 (stereo unspecified)	i
CCCSc1nc(C)c(CC(=O)OCC)c(=O)[nH]1	0.1
CCc1ccc2oc(-c3ccc(N)cc3)nc2c1	i
Cc1cc(C)nc(SCCC(=O)Nc2ccccc2C)n1	0.1
Cc1cccc(NC(=S)NCc2ccccn2)c1	i
CC(=O)NC1Sc2ccccc2N=C1c1ccccc1 (stereo unspecified)	i
O=C(CC(Nc1ccccc1Cl)C(=O)OCC(=O)c1cccs1)c1ccccc1 (stereo unspecified)	i
Fc1ccc(OCc2nn3c(Cn4nnc5ccccc54)nnc3s2)cc1	0.9
CCOc1ccccc1CNC(=O)c1cc2oc3ccccc3c2n1C	i
NC1=NC2(CCN(Cc3ccccc3)CC2)n2c(nc3ccccc32)N1	i

compound	H5N1 CPE
Brc1ccc(-c2csc(N3CCC(c4ccccc4)C3)n2)cc1 (stereo unspecified)	i
C=CCn1c(SCC(=O)N2CCOCC2)nc(O)cc1=O	i
Nn1c(Cc2ccccc2F)nnc1SCC(=O)N1CC(=O)Nc2ccccc21	0.3
CC(C)N1C(=O)CC2(CC[N+](C)(CCOC(=O)C(O)(c3ccccc3)c3ccccc3)CC2)C1=O (stereo unspecified)	0.0
COC(=O)c1c(C(=O)OC)c2cccc3cc(-c4ccccc4)c4ccc1c4n32	4.5
Cc1c(C#N)c(=O)oc2ccc3ccccc3c12	i
CCOC(=O)C1=C(O)CSC1=Nc1ccccc1	1.4
C=CCNC(=O)c1ccc(Sc2ccccc2)c([N+](=O)[O-])c1	i
CS(=O)(=O)N(CC(=O)Nc1ccc2c(c1)OCCO2)Cc1ccc(Cl)cc1	i
CCCCCCC(=O)Nc1c2c(nc3ccccc13)N(C)CC2	0.2
Cc1cc(-n2nnc3ccccc32)nc2ccccc12	3.2
Cc1sc2nc(SCc3nc(-c4cccs4)no3)n(-c3ccccc3)c(=O)c2c1C	1.6
COc1ccc(-n2c(SCCC#N)nnc2-c2cc(Cl)ccc2OC)cc1Cl	i
C=CCn1c(=O)c2c(C)c(C)sc2n2c(Nc3ccc(OC)cc3)nnc12	1.5
Clc1ccccc1OCCCCn1ccnc1	0.6
CC1CN=C(NCc2ccccc2)S1 (stereo unspecified)	i
O=C(CSc1nnc(-c2ccncc2)n1-c1ccc(Cl)cc1)NCc1cccs1	2.0
O=C(NC(NC(=S)Nc1ccc(Cl)c(Cl)c1)C(Cl)(Cl)Cl)c1ccco1 (stereo unspecified)	0.2
CC(C)CNC(=O)c1ccccc1Oc1ccccc1	1.0
CN(C)CC(C)(C)NS(=O)(=O)c1ccc(Cl)cc1	0.3
O=C(CSc1ncn[nH]1)N1CCN(S(=O)(=O)c2ccc(Cl)cc2)CC1	i
Cc1cc(C)c(NC(=O)c2ccc(CN3CCc4ccccc4C3)cc2)c(C)c1	i
O=C(COc1ccc(Cl)cc1)Nc1ccc(Cl)cn1	i
CCCCCCn1c(SCCCC)nc2c1c(=O)[nH]c(=O)n2C	0.3
Cc1cccc(OCC(=O)NC(=S)Nc2ccc(S(=O)(=O)NC3CCCCC3)cc2)c1	i
Cc1ccc(-c2oc3ncnc(N)c3c2-c2ccc(C)cc2)cc1	3.7
CCC(C)OC(=O)n1ccc(C(=O)Nc2nccs2)n1 (stereo unspecified)	1.8
COc1ccc(OC)c(S(=O)(=O)N(C)CC(=O)Nc2ccc3c(c2)OCO3)c1	1.7
Cc1cccc(NC(=O)N(Cc2nc3ccccc3c(=O)[nH]2)C2CCCC2)c1	0.1
CC(=O)Nc1ccc(S(=O)(=O)N2CCN(c3ccccn3)CC2)cc1	1.0

The final 4 compounds of the part before are carried over, then new ones follow:
SMILES	H5N1 CPE
CCC(C)OC(=O)n1ccc(C(=O)Nc2nccs2)n1 (stereo unspecified)	1.8
COc1ccc(OC)c(S(=O)(=O)N(C)CC(=O)Nc2ccc3c(c2)OCO3)c1	1.7
Cc1cccc(NC(=O)N(Cc2nc3ccccc3c(=O)[nH]2)C2CCCC2)c1	0.1
CC(=O)Nc1ccc(S(=O)(=O)N2CCN(c3ccccn3)CC2)cc1	1.0
C=C(c1ccc(OCCO)cc1)c1ccc(OCCO)cc1	0.4
Cc1ccc(C)c2nc(N3CCCC3)c(C#N)cc12	i
O=C(CNC(=O)c1ccc(Cl)cc1Cl)NCC(=O)Nc1ccccc1N1CCOCC1	i
CC1=CCP(=O)(c2ccccc2)C1 (stereo unspecified)	i
CC1=NN(Cc2ccccc2)C(=O)C1C(c1ccccc1)C(C#N)C#N (stereo unspecified)	i
CCOC(=O)N1CCN(C(=O)CSCC(=O)N=c2sc3ccccc3n2C)CC1	1.0
COc1ccc2nc(NC(=O)c3cc(S(=O)(=O)N4CCOCC4)ccc3C)sc2c1	i
CC1(C)CC(=O)C(C=NCCc2ccccn2)=C(O)C1	i
CCCCOC(=O)C1C2C=C[C@]3(CN(C(C)c4ccc(OC)cc4)C(=O)[C@H]13)O2 (stereo partly specified)	1.9
c1ccc(CCc2nc(-c3cccnc3)no2)cc1	0.4

Look-ups from the results shown:
Reading of C=C(c1ccc(OCCO)cc1)c1ccc(OCCO)cc1 in H5N1 CPE: 0.4
Reading of CCOC(=O)N1CCN(C(=O)CSCC(=O)N=c2sc3ccccc3n2C)CC1 in H5N1 CPE: 1.0

Following part:
SMILES	H5N1 CPE
O=C(C(Cc1ccccc1)n1cccc1)N1CCCCC1 (stereo unspecified)	2.0
Cc1ccc(/C(N)=N/OC(=O)Oc2ccccc2)cc1	0.2
Nc1nc2ccc(S(=O)(=O)N3CCCCC3)cc2s1	2.2
C=CCNc1nc(-c2ccc(Cl)cc2)cs1	i
CC(NC(=O)CN(C)Cc1nc2ccccc2c(=O)[nH]1)c1ccccc1 (stereo unspecified)	i
Cc1nc2ncnn2c(C)c1CCC(=O)N1CCc2ccccc21	2.3
CCCCSc1nc(CCC)cc(=O)[nH]1	i
O=C(O)[C@H](Cc1ccccc1)N1Cc2ccccc2C1=O	2.6
CC(C)c1ccc(O)c(NC(=O)c2cncc(Br)c2)c1	i
O=C(CCSc1nnc(-c2ccncc2)o1)Nc1ccccc1Cl	i

SMILES	H5N1 CPE
CCN(CC)CCNC(=O)c1ccccc1C(=O)c1ncc[nH]1	0.1
Cc1cc(S(=O)(=O)Nc2ccccc2C(=O)O)ccc1Cl	i
NC(=O)C1CCN(C(c2ccccc2F)c2nnnn2Cc2ccco2)CC1 (stereo unspecified)	i
CS(=O)(=O)N(CC(=O)N1CCCCCC1)c1ccc2c(c1)OCCO2	i
Cc1ccc(NS(=O)(=O)c2ccc3c(c2)oc(=O)n3C)cc1F	2.2
COc1ccc(C(=O)NCCC(C)C)cc1S(=O)(=O)N1CCOCC1	0.3
Cc1oc(-c2cccs2)[n+]([O-])c1C	0.1
COc1ccc(/C(=N/O)C(C)(C)NO)cc1	i
Nc1cccnc1Sc1cccc(Cl)c1	i
COC(=O)Cn1nc(-c2ccccc2)c2ccccc21	i

SMILES	H5N1 CPE
Cc1ccnc(NC(=O)CCC2CCCCC2)c1	i
Cc1ccc(S(=O)(=O)NC2=NCN(CCOC(=O)c3ccccc3)CN2)cc1	i
COc1ccc(-c2nc(SC)n(C(=O)c3ccco3)n2)cc1	0.8
Cc1cccc(OCc2nnc(SCC(=O)N3CCc4ccccc43)n2C)c1	1.4
CN(Cc1ccco1)C(=O)C(Cc1ccccc1)NS(=O)(=O)c1ccc2c(c1)CCC(=O)N2 (stereo unspecified)	2.8
CC(=O)Nc1ccc(N2C(=O)CC(N3CC(C)OC(C)C3)C2=O)cc1 (stereo unspecified)	0.9
Cc1csc(NC(=O)CSc2nnc(-c3ccco3)n2C)n1	0.1
COc1ccc(-c2[nH]ncc2/C=C(/C#N)C(=O)NC2CCCCC2)cc1	i
O=C(Nc1ccc(Br)cc1)C1CCC(=O)N1Cc1ccccc1Cl (stereo unspecified)	i
Cc1noc(C)c1COC(=O)c1ccc2c(c1)OCCO2	i

SMILES	H5N1 CPE
CCCN(CCC)C(=O)CSc1nc2n[nH]c(C)c2c(=N)n1-c1ccc(OC)cc1	3.3
COc1ccccc1NC(=O)COC(=O)c1cnccn1	i
CCOC(=O)c1sc(NC(=O)CSc2ncccn2)c(C#N)c1C	1.1
CCSc1nnc(NC(=O)CSc2nnc(Cc3cccn3C)n2CCc2ccccc2)s1	i
CCCCOc1ccc(CNC(=S)N/N=C/c2ccc(OC)c(OC)c2)cc1	i
CC(C)OC(=O)CC(=O)c1sc2nc3c(cc2c1N)CN(C)CC3	i
CCOc1ccc(-n2c(SC)nc3c(c2=O)SCC3)cc1	0.3
CCc1cc(C(=O)OC)c(NC(=O)CC2NCCNC2=O)s1 (stereo unspecified)	i
O=C1c2ccccc2C(=O)c2c1cccc2N1CCN(CCO)CC1	i

Source: PubChem BioAssay
